Assay outcomes: PubChem BioAssay, several laboratories
RGS16-Gao = modulators of RGS16 binding to Galphao, primary screen, biochemical, human proteins, multiplexed bead flow cytometry. bead-based flow cytometry RGS16-Galphao binding, fluorescence; actives lie on both sides. 220,000 compounds, 0.38% hits. AID 1441, 2008. binding response (% of control), % at 10 µM. Regulator of G-protein signaling 16 (Homo sapiens) + Guanine nucleotide-binding protein …;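 active = below 25% or above 175%, edge rows of some plates excepted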;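 also: Galphao activated by GDP with aluminum fluoride before binding; 100% = wells without compound and 0% = beads without RGS; some results beyond the cut were filed as inactive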
Target sequence (O15492 whole entry, looked up): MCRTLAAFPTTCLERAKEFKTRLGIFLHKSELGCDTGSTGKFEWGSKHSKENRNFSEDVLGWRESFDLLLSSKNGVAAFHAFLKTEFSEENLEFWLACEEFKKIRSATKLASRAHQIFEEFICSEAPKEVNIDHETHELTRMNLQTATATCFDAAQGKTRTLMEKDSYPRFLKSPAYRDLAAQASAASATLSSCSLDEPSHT
Target sequence (P09471 whole entry, looked up): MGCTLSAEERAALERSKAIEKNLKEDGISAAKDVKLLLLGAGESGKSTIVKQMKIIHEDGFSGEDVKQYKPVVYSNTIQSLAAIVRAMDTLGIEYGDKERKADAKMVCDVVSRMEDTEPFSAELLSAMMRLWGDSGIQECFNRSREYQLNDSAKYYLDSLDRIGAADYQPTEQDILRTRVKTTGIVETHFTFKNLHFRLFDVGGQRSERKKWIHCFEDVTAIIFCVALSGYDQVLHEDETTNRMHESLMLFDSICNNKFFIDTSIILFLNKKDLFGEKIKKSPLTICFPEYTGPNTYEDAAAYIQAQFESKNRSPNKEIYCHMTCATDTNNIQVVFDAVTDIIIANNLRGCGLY
GALR2 agonist = GALR2 receptor agonists, primary screen, cell-based | Galanin receptor type 2 (Homo sapiens), O43603 | GALR2-expressing cells, agonist activation read-out | activation, %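 (tested at 5 µM)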 | 140,000 compounds, 0.48% hits;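 active = above mean plus 3 SD of all compounds, about 5% in these data, not always enough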;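 also: 0% = vehicle buffer wells and 100% = reference agonist at full effect; tested in CHO reporter cells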
Target sequence (O43603 whole entry, looked up): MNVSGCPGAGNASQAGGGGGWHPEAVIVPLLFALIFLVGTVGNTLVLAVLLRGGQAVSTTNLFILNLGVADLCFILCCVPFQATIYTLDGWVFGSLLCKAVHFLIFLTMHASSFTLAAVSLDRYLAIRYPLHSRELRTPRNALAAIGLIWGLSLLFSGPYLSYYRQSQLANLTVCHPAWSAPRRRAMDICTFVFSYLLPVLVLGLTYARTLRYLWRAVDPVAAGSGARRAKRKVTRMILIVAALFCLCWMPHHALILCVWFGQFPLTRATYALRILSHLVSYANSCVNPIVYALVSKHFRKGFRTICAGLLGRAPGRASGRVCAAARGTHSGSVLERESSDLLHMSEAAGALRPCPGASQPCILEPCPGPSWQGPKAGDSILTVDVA
Insulin prom inh = inhibitors of insulin promoter-driven GFP, primary screen, imaging, TRM-6 cells (human fetal islet line), eGFP reporter, cell count; reporter expression induced with tamoxifen; inhibition, % at 2 µM; 130,000 compounds, 0.9% hits; AID 1273, 2008;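 active = inhibition above the mean plus 3 SD, with well images judged a real hit on visual review, cut at about 60% in these data, passing the limit was not always enough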
PKD1 kinase inh = inhibitors of human PKD1 kinase, biochemical, fluorescence polarization | PKD1 kinase fluorescence polarization assay | inhibition, %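 (about 10 µM by stock and volumes)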 | 200,000 compounds, 0.056% hits;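 active = inhibition of 50% or more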;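 also: controls were vehicle for no effect and a reference inhibitor for full effect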
HSV augment = enhancers of HSV replication in host cells, fold increase, host cell viability; HSV replication augmentation in cells; maximum fold increase; 220,000 compounds, 0.005% hits;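 active = peak rise of 1.5-fold or more in the series; tested in PC3 cells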;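 also: first round at 10 µM; read as green reporter fluorescence; hits show the peak of a series up to 25 µM; 1 = signal of infected wells without compound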
Insulin prom inh cell count = recorded beside Insulin prom inh, whose call it bears; normalized cell count, %; measured here: cell count, toxicity; reference of the scale not given here;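 cells exposed to compound for 48 h; stained nuclei by imaging scaled within each plate; lower means fewer cells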
HSV augment primary fold = recorded beside HSV augment, whose call it bears; fold increase; compound at 10 µM; measured here: primary screen fold increase 10 uM; tested in PC3 cells;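 GFP signal in the first replicate; 1 = infected wells without compound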
Numbers without * were called inactive; i = inactive; / = not tested or not shown.

entry	Structure	RGS16-Gao	GALR2 agonist	Insulin prom inh	Insulin prom inh cell count
1	CC(C)c1ccc(NC(=O)c2ccc(Br)o2)cc1	127	-2.4	-140	65
2	CC(C)CC(NC(=O)C(NC(=O)OC(C)(C)C)C(C)C)C(=O)NC(CCC(=O)OCc1ccccc1)C(N)=O (stereo unspecified)	104	-2.7	38	120
3	Cc1ccc(NC(=O)N2CCC(c3nc4c(nnn4Cc4c(F)cccc4Cl)c(=O)[nH]3)CC2)cc1	107	-1.1	/	/
4	CC(OC(=O)CNC(=O)C12CC3CC(CC(C3)C1)C2)C(=O)Nc1ccc(N2CCOCC2)cc1 (stereo unspecified)	112	0.3	-7	63
5	N#Cc1ccccc1CSC1=NCCS1	114	/	/	/
6	Cc1ccc(OCCn2c3ccccc3n3nc(C)c(=O)nc23)cc1	104	/	/	/
7	CC(=O)Nc1ccc(Cl)cc1C(=O)O	102	1.9	21	83
8	Cc1cc(N/N=C/c2c[nH]c3ccccc23)c2ccccc2n1	123	/	/	/
9	CCc1ccc(C2CC(=O)N(c3cccc(F)c3)C3=C2C(=O)OC3)cc1 (stereo unspecified)	100	/	-47	116
10	O=C(CN1CCN(C(=S)NC2CCCC2)CC1)Nc1ccc(Oc2ccccc2)cc1	58	-0.8	/	/
11	CCOC(=O)N1CCN(C(=O)c2ccc(NC(C)=O)cc2)CC1	117	-1.4	-32	143
12	CSc1ccc(/C=C/C(=O)c2ccc(NC(C)=O)cc2)cc1	98	-0.5	0	91

entry	PKD1 kinase inh	HSV augment	HSV augment primary fold
1	-6	i	0.82
2	-6	i	0.85
3	-1	i	0.85
4	-1	i	0.91
5	-8	i	0.96
6	-11	i	0.93
7	-1	i	0.92
8	-5	i	0.98
9	-7	i	0.92
10	-2	i	0.99
11	-14	/	/
12	3	i	0.94

Given with values under each structure: part of the list above
Under each structure – RGS16-Gao, GALR2 agonist, Insulin prom inh, Insulin prom inh cell count, PKD1 kinase inh, HSV augment, HSV augment primary fold
5) N#Cc1ccccc1CSC1=NCCS1
  114, /, /, /, -8, i, 0.96
6) Cc1ccc(OCCn2c3ccccc3n3nc(C)c(=O)nc23)cc1
  104, /, /, /, -11, i, 0.93
7) CC(=O)Nc1ccc(Cl)cc1C(=O)O
  102, 1.9, 21, 83, -1, i, 0.92

Next section
entry	Structure	RGS16-Gao	GALR2 agonist	Insulin prom inh	Insulin prom inh cell count
13	c1ccc(N2CCN(Cc3cn4ccccc4n3)CC2)cc1	103	/	/	/
14	CC(C)c1nc(N2CCOCC2)c(C#N)c2c1COC(C)(C)C2	97	-2.2	/	/
15	CC(=O)Nc1ccc(/C(C)=N/NS(=O)(=O)c2ccc(C)cc2)cc1	110	-3.5	33	92
16	NNC(=O)C1CCCn2c1nc1sc3c(c1c2=O)CCCC3 (stereo unspecified)	100	-3.9	-43	112
17	CC(c1ccco1)N(C(=O)c1ccccc1F)c1ccccn1 (stereo unspecified)	98	/	/	/
18	Cc1ccc(SCC(=O)c2c(C)[nH]c3ccccc23)cc1	54	-0.7	-53	47
19	COc1ccccc1NC(=O)c1c(NC(=O)c2ccco2)sc2c1CCC2	101	0.0	/	/
20	Fc1ccc(CNCc2ccccc2C(F)(F)F)cc1	96	-0.8	-42	77
21	CC(C)CCOC(=O)C(C)Sc1n[nH]c(=O)[nH]c1=O (stereo unspecified)	110	/	/	/
22	CCC(=O)Nc1ccccc1C(=O)N1CCCC1	99	-0.1	30	110
23	COc1ccc(Nc2ccncc2[N+](=O)[O-])cc1	105	/	17	115
24	Cc1ccc(CN2C3=NCCCN3c3ccccc32)cc1	89	-2.5	/	/

entry	PKD1 kinase inh	HSV augment	HSV augment primary fold
13	-1	i	0.94
14	-10	i	0.94
15	-3	/	/
16	-10	i	0.93
17	-8	i	0.93
18	-5	i	0.86
19	-12	i	1
20	-1	i	0.97
21	/	i	1
22	-5	i	0.97
23	-6	i	0.91
24	-2	i	1

The final two entries of the part above lead into the next.
entry	Structure	RGS16-Gao	GALR2 agonist	Insulin prom inh	Insulin prom inh cell count
23	COc1ccc(Nc2ccncc2[N+](=O)[O-])cc1	105	/	17	115
24	Cc1ccc(CN2C3=NCCCN3c3ccccc32)cc1	89	-2.5	/	/
25	O=C(COC(=O)Cc1cccs1)Nc1ccccc1Cl	99	/	/	/
26	Cc1cc[n+](-c2[nH]c(=O)sc2/C=N/N=C(\[O-])c2ccccc2)cc1	101	/	/	/
27	Cc1ccc2c(C(=O)CN3CCC4(CC3)OCCO4)c(C)[nH]c2c1	106	-0.2	-47	209
28	COC(=O)c1nn(-c2ccccc2)c(-c2ccccc2)c1C(=O)c1ccccc1	103	-3.0	29	121
29	OCc1cn(-c2ccccc2)nc1-c1cc2ccccc2o1	107	/	/	/
30	CC(C)(C)c1ccc(OCC(=O)NN2Cc3ccccc3C2=N)cc1	105	/	-38	108
31	CCC1Cc2c(nc(N)c3c(N)nc(N4CCOCC4)c(C#N)c23)O1 (stereo unspecified)	103	/	/	/
32	CC(=O)Oc1cc2oc(=O)cc(C)c2cc1Cl	100	/	/	/
33	Cc1ccc(-c2nnc3c4ccccc4c(C)nn23)cc1S(=O)(=O)N1CCN(C)CC1	/	1.1	18	157
34	O=C(O)c1ccc(COc2c(F)c(F)c(F)c(F)c2F)o1	76	-1.0	-33	100
35	Cc1ccc2nc(C)c3c(c2c1)N(c1ccc(F)cc1)CC3	92	/	/	/
36	COc1ccc(OC)c(Cc2nnc(CCC(=O)NCc3nc4ccccc4s3)o2)c1	106	/	/	/

entry	PKD1 kinase inh	HSV augment	HSV augment primary fold
23	-6	i	0.91
24	-2	i	1
25	0	i	1
26	/	i	1
27	4	i	0.89
28	-8	i	0.96
29	-3	i	0.97
30	0	i	1
31	2	i	0.81
32	/	i	0.98
33	-7	/	/
34	1	i	1.2
35	/	i	0.61
36	-14	i	0.97

(listing goes on)
entry	Structure	RGS16-Gao	GALR2 agonist	Insulin prom inh	Insulin prom inh cell count
37	O=C(NCCN1C(=O)S/C(=C\c2cccnc2)C1=O)c1ccc(S(=O)(=O)N2CCCC2)cc1	100	/	/	/
38	COc1cccc(NS(=O)(=O)c2cc(C)ccc2OC)c1	131	-1.5	-138	84
39	COCCNC(=O)COc1ccc(C)cc1C(=O)c1cc(C#N)c(=O)n(C2CC2)c1	103	/	/	/
40	O=C(COc1ccc(C(=O)c2ccccc2)cc1)NC1CCCCC1	105	-1.1	16	178
41	COc1cccc(N=CC2=C(O)CC(C)(C)CC2=O)c1	85	-1.8	-14	62
42	CCn1c(NC(=O)c2ccc(F)cc2)c2ccccc2nc1=O	100	-1.3	/	/
43	Cc1[nH]nc(SCC(=O)N(C)c2ccccc2)c1[N+](=O)[O-]	100	/	/	/
44	Cc1cc([N+](=O)[O-])nn1CC(=O)NCCc1c[nH]c2ccccc12	101	/	53	125
45	CSc1ccccc1NC(=O)Nc1ccccc1	93	-2.3	-5	90
46	Cc1ccc(NC(=O)CNc2ccc(Cl)c(Cl)c2)cc1S(=O)(=O)N(C)C	100	-0.4	33	74
47	COc1ccc(-c2nnc(SC(C)C(=O)Nc3nccs3)n2-c2ccccc2)cc1OC (stereo unspecified)	101	-3.3	-34	115
48	O=[N+]([O-])c1ccc2nc(CCCc3nc4ccc([N+](=O)[O-])cc4[nH]3)[nH]c2c1	109	/	/	/

entry	PKD1 kinase inh	HSV augment	HSV augment primary fold
37	/	i	0.96
38	-4	i	0.92
39	-5	i	0.94
40	-19	i	1
41	3	i	1.1
42	6	i	0.78
43	-2	i	0.97
44	-4	i	0.95
45	-5	i	1.2
46	-2	i	0.73
47	-6	i	0.89
48	8	i	0.93

Next section
entry	Structure	RGS16-Gao	GALR2 agonist	Insulin prom inh	Insulin prom inh cell count
49	NNC(=O)c1cc(-c2ccc(N)cc2)nc2ccc(Br)cc12	108	/	/	/
50	Cc1c(C(=O)N(C)Cc2ccccc2)oc2ccc(S(=O)(=O)N3CCCC3)cc12	102	-1.1	29	177
51	Cc1cccc(N2CN(Cc3ccco3)CNC2=S)c1	92	-0.6	/	/
52	O=c1cc(N2CCCCCC2)[nH]c(=O)n1-c1ccccc1Cl	99	/	-12	70
53	COc1ccc(C(=O)NCCn2cc(SCC(N)=O)c3ccccc32)cc1	88	/	/	/
54	COc1cccc(C2NC(=S)NC(C)=C2C(=O)c2ccccc2)c1OC (stereo unspecified)	104	/	0	50
55	COc1cccc(NC(=O)C(C)Oc2ccccc2)c1 (stereo unspecified)	91	-2.0	-118	27
56	CCCCNC(=O)c1cc2cc(CC)ccc2[nH]1	116	/	/	/
57	COCc1cc(C)nc2sc(C(=O)OC)c(N)c12	99	-1.8	-12	134
58	CCOC(=O)N1C(=O)c2cc(OC)ccc2S1(=O)=O	105	-1.5	-31	100
59	O=C(C1CCCN(S(=O)(=O)c2cccc3nsnc23)C1)N1CCN(c2ccccn2)CC1 (stereo unspecified)	103	0.6	/	/
60	C=CCN1C(=O)C2(NC(=O)c3ccccc3N2)c2ccccc21 (stereo unspecified)	104	/	/	/

entry	PKD1 kinase inh	HSV augment	HSV augment primary fold
49	/	i	1.1
50	-4	i	0.84
51	0	i	1
52	-8	i	1
53	/	i	1
54	3	i	0.72
55	10	i	1
56	/	i	0.88
57	8	i	0.94
58	-7	i	0.86
59	-2	i	0.78
60	-5	i	0.83

More records follow.
entry	Structure	RGS16-Gao	GALR2 agonist	Insulin prom inh	Insulin prom inh cell count
61	CCc1ccc(C2CC(c3ccccc3)Nc3nc(N)nn32)cc1 (stereo unspecified)	103	/	/	/
62	CN1CCN(/N=C/c2nc(-c3ccccc3)n3ccccc23)CC1	114	-0.9	31	58
63	Nc1ncnc2nc(N3CCN(C(=O)c4ccccc4)CC3)[nH]c12	175	-2.9	9	114
64	COc1ccc(/C=C(\C#N)C(=O)C(C)(C)n2cncn2)cc1	89	/	-38	129
65	C(=N\Nc1nc(N2CCOCC2)nc(N2CCOCC2)n1)/c1cccnc1	102	-2.9	/	/
66	NNc1nc2c(Cl)cccc2s1	105	-1.6	46	91
67	O=c1[nH]c2ccccc2n1CCCSCCCn1c(=O)[nH]c2ccccc21	92	0.5	22	85
68	Cc1cc(F)ccc1S(=O)(=O)Nc1ccccc1C(=O)Nc1ccccc1N1CCOCC1	99	0.9	32	54
69	CC(=O)c1ccc(NC(=O)Nc2sc(NS(=O)(=O)c3ccccc3)nc2C)cc1	100	/	/	/
70	Cc1nc2nc(C)c(CCC(=O)NC3CCCCC3)c(C)n2n1	99	/	12	136
71	Cc1cc(C)n(CCO)c(=O)n1	98	-0.3	25	83
72	CCc1nc(N)nc(N)c1-c1ccc(Cl)cc1	103	-1.4	10	128
73	COc1ccc(C(=O)CSc2nnc(-c3cc(C)on3)o2)cc1	93	1.2	-24	94
74	O=C(Cn1[nH]c(=O)c2ccccc2c1=O)NNC(=O)c1ccccc1	101	/	15	88
75	Cn1cc([C@@H]2C[C@H]3CN(C4CCCC4)C(=O)[C@]34CCCN24)c(-c2ccccc2)n1	101	/	58	114

entry	PKD1 kinase inh	HSV augment	HSV augment primary fold
61	2	i	0.8
62	-6	i	0.95
63	-3	i	0.97
64	3	i	1.1
65	-12	i	1
66	-8	i	1.1
67	1	i	0.77
68	-2	i	1.2
69	-4	i	1.1
70	-7	i	0.97
71	-15	i	0.77
72	-5	i	0.66
73	0	i	0.87
74	9	i	1
75	3	i	1
